Screening data from PubChem.
NOMO-1 viab: NOMO-1 AML cell viability reduction, primary screen, STK33 inhibitor project, CellTiter-Glo luminescence. inhibition, % (concentration not given with the values). AID 2330, 2010. hit rate 7.5% among 37,000. NOMO-1 AML viability, 72 h;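 active = most replicates above 80%; inconclusive = exactly half above 80%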;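 also: wells of about 30 µL received 25 nL stock; 0% = median of vehicle wells and 100% = reference inhibitor level; the first replicate is given; inactives centre near 10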
* = called active by the depositor; ? = inconclusive. The list is partial; rates above refer to the full screens.

SMILES	NOMO-1 viab
C[C@@H]1CCCCO[C@H](CN(C)C(=O)c2ccncc2)[C@@H](C)CN([C@H](C)CO)C(=O)c2cc(NC(=O)CCC(F)(F)F)ccc2O1	41
Cc1cccc(OCC(=O)Nc2cccc(-c3nc4cc(C)ccc4o3)c2)c1	5
C[C@@H]1CN([C@H](C)CO)C(=O)c2cccc(NC(=O)NC3CCCCC3)c2O[C@@H]1CN(C)Cc1ccc(C(F)(F)F)cc1	29
C[C@@H]1CCCCO[C@H](CN(C)C(=O)Nc2ccc3c(c2)OCO3)[C@@H](C)CN([C@H](C)CO)C(=O)c2cc(NC(=O)C3CCCCC3)ccc2O1	35
C[C@@H]1CN([C@H](C)CO)C(=O)c2cccc(NC(=O)Nc3ccc(F)cc3)c2O[C@H]1CN(C)S(C)(=O)=O	17
CC(C)NC(=O)Nc1ccc2c(c1)CC(=O)N([C@@H](C)CO)C[C@H](C)[C@H](CN(C)Cc1ccccc1)O2	-1
C[C@@H]1CN([C@@H](C)CO)C(=O)c2cccc(NS(=O)(=O)c3cccs3)c2O[C@@H]1CN(C)C(=O)Nc1ccc(F)cc1	2
C[C@H](CO)N1C[C@H](C)[C@@H](CN(C)Cc2ccc(Oc3ccccc3)cc2)Oc2ccc(NC(=O)Nc3ccccc3)cc2C1=O	?
O=C(Nc1ccc(Br)cc1)C1CN(S(=O)(=O)c2ccccc2)CCN1S(=O)(=O)c1ccccc1 (configuration not stated)	19
C[C@@H]1CN([C@H](C)CO)C(=O)c2cccc(NC(=O)Nc3ccc4c(c3)OCO4)c2O[C@H]1CN(C)C(=O)Nc1ccc(F)cc1	22
Cc1noc(C)c1NC(=O)Nc1ccc2c(c1)C(=O)N([C@@H](C)CO)C[C@@H](C)[C@@H](CN(C)Cc1ccc3c(c1)OCO3)O2	34
O=C(NC1CCN(C(=O)C2CCC2)CC1)C1CCCCC1	8
Cc1cc(=O)[nH]c(SCC(=O)Nc2cc([N+](=O)[O-])ccc2C)n1	24
C[C@@H]1CN([C@@H](C)CO)C(=O)Cc2cc(NS(=O)(=O)c3ccccc3)ccc2O[C@@H]1CN(C)Cc1ccc(Cl)c(Cl)c1	62
Cc1noc(C)c1NC(=O)N(C)C[C@H]1Oc2c(NS(=O)(=O)c3ccc(Cl)cc3)cccc2C(=O)N([C@H](C)CO)C[C@H]1C	13
CN(C)c1nc(N)nc(CSc2nc3cc(Cl)ccc3o2)n1	13
Cc1noc(C)c1NC(=O)N(C)C[C@@H]1Oc2ccc(NS(=O)(=O)c3cn(C)cn3)cc2CC(=O)N([C@H](C)CO)C[C@H]1C	2
C[C@@H]1CN([C@H](C)CO)C(=O)Cc2cc(N(C)C)ccc2O[C@H]1CN(C)Cc1ccc(C(=O)O)cc1	-3
COc1ccc(-n2c(SCCCN3C(=O)c4cccc5cccc(c45)C3=O)nnc2-c2cccnc2)cc1	34
C[C@@H]1CN([C@H](C)CO)C(=O)c2cc(N(C)C)ccc2O[C@H]1CN(C)S(=O)(=O)c1ccc(Cl)cc1	35
C[C@H]1CN([C@@H](C)CO)C(=O)c2cccc(NS(=O)(=O)c3ccc(F)cc3)c2O[C@H]1CN(C)C(=O)Nc1ccccc1	17
COc1ccc(NC(=O)Nc2ccc3c(c2)C(=O)N([C@H](C)CO)C[C@H](C)[C@H](CN(C)S(C)(=O)=O)O3)cc1	1
C[C@@H]1CN([C@H](C)CO)C(=O)c2cc(NS(=O)(=O)c3ccc(Cl)cc3)ccc2O[C@H]1CN(C)C(=O)Nc1ccc(F)cc1	9
CCOC(=O)c1ccccc1NC(=O)COc1ccccc1C	-12
CC(=O)Oc1c(I)c(=O)n(C)c2ccccc12	121*
Cc1ccccc1Cn1ccc(NC(=O)c2nn3c(c2Cl)NC(c2ccccc2)CC3C(F)(F)F)n1 (configuration not stated)	25
C[C@H]1CN([C@@H](C)CO)C(=O)c2cccc(NC(=O)C3CC3)c2O[C@@H]1CN(C)CC1CC1	8
COc1ccc(S(=O)(=O)Nc2ccc3c(c2)C(=O)N([C@@H](C)CO)C[C@H](C)[C@@H](CN(C)C(=O)Nc2ccc4c(c2)OCO4)O3)cc1	-3
COc1ccc(-c2nc3nnc(C)n3[nH]2)c(OC)c1	-7
C[C@@H]1CN([C@H](C)CO)C(=O)c2cccc(NS(=O)(=O)c3ccc(F)cc3)c2O[C@@H]1CN(C)Cc1ccc(C(=O)Nc2ccccc2N)cc1	127*

Ordered by length of the SMILES (ascending): 14 of the compounds above
SMILES	NOMO-1 viab
CC(=O)Oc1c(I)c(=O)n(C)c2ccccc12	121*
CCOC(=O)c1ccccc1NC(=O)COc1ccccc1C	-12
COc1ccc(-c2nc3nnc(C)n3[nH]2)c(OC)c1	-7
CN(C)c1nc(N)nc(CSc2nc3cc(Cl)ccc3o2)n1	13
Cc1ccccc1Cn1ccc(NC(=O)c2nn3c(c2Cl)NC(c2ccccc2)CC3C(F)(F)F)n1 (configuration not stated)	25
COc1ccc(-n2c(SCCCN3C(=O)c4cccc5cccc(c45)C3=O)nnc2-c2cccnc2)cc1	34
C[C@H]1CN([C@@H](C)CO)C(=O)c2cccc(NC(=O)C3CC3)c2O[C@@H]1CN(C)CC1CC1	8
C[C@@H]1CN([C@H](C)CO)C(=O)Cc2cc(N(C)C)ccc2O[C@H]1CN(C)Cc1ccc(C(=O)O)cc1	-3
C[C@@H]1CN([C@H](C)CO)C(=O)c2cc(N(C)C)ccc2O[C@H]1CN(C)S(=O)(=O)c1ccc(Cl)cc1	35
COc1ccc(NC(=O)Nc2ccc3c(c2)C(=O)N([C@H](C)CO)C[C@H](C)[C@H](CN(C)S(C)(=O)=O)O3)cc1	1
C[C@H]1CN([C@@H](C)CO)C(=O)c2cccc(NS(=O)(=O)c3ccc(F)cc3)c2O[C@H]1CN(C)C(=O)Nc1ccccc1	17
C[C@@H]1CN([C@@H](C)CO)C(=O)Cc2cc(NS(=O)(=O)c3ccccc3)ccc2O[C@@H]1CN(C)Cc1ccc(Cl)c(Cl)c1	62
C[C@@H]1CN([C@H](C)CO)C(=O)c2cc(NS(=O)(=O)c3ccc(Cl)cc3)ccc2O[C@H]1CN(C)C(=O)Nc1ccc(F)cc1	9
COc1ccc(S(=O)(=O)Nc2ccc3c(c2)C(=O)N([C@@H](C)CO)C[C@H](C)[C@@H](CN(C)C(=O)Nc2ccc4c(c2)OCO4)O3)cc1	-3

Next part
SMILES	NOMO-1 viab
Cc1ccc(S(=O)(=O)Nc2ccc3c(c2)CC(=O)N([C@H](C)CO)C[C@H](C)[C@H](CN(C)S(=O)(=O)c2ccc(C)cc2)O3)cc1	33
C[C@@H]1CN([C@@H](C)CO)C(=O)c2cc(N(C)C)ccc2O[C@H]1CN(C)Cc1ccc(Cl)c(Cl)c1	43
C[C@@H]1CCCCO[C@H](CN(C)S(=O)(=O)c2cccs2)[C@@H](C)CN([C@H](C)CO)C(=O)c2cc(NC(=O)CCCCCC(=O)Nc3ccccc3N)ccc2O1	21
C[C@@H]1CN([C@H](C)CO)C(=O)c2cc(NS(=O)(=O)c3cn(C)cn3)ccc2O[C@@H]1CN(C)S(=O)(=O)c1ccc(Cl)cc1	30
O=c1c2ccccc2nc(CSc2nc(C3CC3)nc3ccccc23)n1-c1ccccc1	16
CCOC(=O)c1c(-c2ccccc2)csc1NC(=O)Cn1c(=O)oc2ccccc21	6
N#Cc1c(NC(=O)CSc2n[nH]c(-c3ccc(Cl)cc3Cl)n2)sc2c1CCCC2	-15
C[C@H](CO)N1C[C@H](C)[C@@H](CN(C)C(=O)Nc2ccc3c(c2)OCO3)Oc2c(cccc2N(C)C)C1=O	13
COc1ccc(CCNC(=O)C(=O)c2c(C)[nH]c3ccccc23)cc1OC	14
Cc1noc(C)c1NC(=O)Nc1cccc2c1O[C@@H](CN(C)Cc1ccc(-c3ccccc3)cc1)[C@@H](C)CN([C@@H](C)CO)C2=O	2
CNC[C@@H]1Oc2ccc(NC(=O)Cn3cnnn3)cc2C(=O)N([C@H](C)CO)C[C@@H]1C	-5
O=C(CSc1nnc(-c2ccc(Cl)cc2)o1)Nc1ccc(I)cc1	-18
C[C@@H]1CN([C@H](C)CO)C(=O)Cc2cc(NC(=O)Cc3ccccc3)ccc2O[C@H]1CN(C)Cc1ccc(Cl)c(Cl)c1	6
Cc1nc2nc[nH]n2c(=O)c1NS(=O)(=O)c1ccc2c(c1)CCCC2	-5
C/C=C(/C)C(=O)O[C@H]1C=C(CO)C(=O)[C@H](OC(=O)/C(C)=C/CO)[C@H]1C(C)C	122*
C[C@H](CO)N1C[C@H](C)[C@H](CN(C)Cc2ccc(Cl)c(Cl)c2)Oc2ccc(NC(=O)NC3CCCCC3)cc2CC1=O	100*
O=C(O)Cc1cc(I)c(Oc2cc(I)c(O)c(I)c2)c(I)c1	14
COc1ccc(CN(C)C[C@@H]2Oc3c(NC(=O)c4cnccn4)cccc3C(=O)N([C@@H](C)CO)C[C@H]2C)cc1	-2
Cc1ccc(S(=O)(=O)N(C)C[C@@H]2OCCCC[C@@H](C)Oc3ccc(NC(=O)Cc4ccccc4)cc3C(=O)N([C@H](C)CO)C[C@@H]2C)cc1	53
C[C@H]1CN([C@@H](C)CO)C(=O)Cc2cc(NC(=O)C3CCCCC3)ccc2O[C@@H]1CN(C)Cc1ccc(Cl)c(Cl)c1	33
COc1ccc(CN(C)C[C@@H]2OCCCC[C@@H](C)Oc3ccc(NS(=O)(=O)c4ccc(OC)cc4)cc3C(=O)N([C@H](C)CO)C[C@@H]2C)cc1	15
C[C@H](CO)N1C[C@H](C)[C@H](CN(C)Cc2ccc(Oc3ccccc3)cc2)Oc2c(NS(=O)(=O)c3cccs3)cccc2C1=O	-1
S=c1nc[nH]c2c1sc1nc(N3CCOCC3)c3c(c12)CCCC3	59
CC(=O)Nc1cccc(-c2nnc(SCC(=O)Nc3ccccc3F)n2C)c1	4
C[C@H]1CN([C@@H](C)CO)C(=O)c2cc(NC(=O)C3CCCCC3)ccc2O[C@@H]1CN(C)Cc1ccc(Cl)c(Cl)c1	52
Cc1noc(C)c1S(=O)(=O)N(C)C[C@H]1Oc2ccc(NS(=O)(=O)c3cn(C)cn3)cc2C(=O)N([C@H](C)CO)C[C@H]1C	-11
O=C(O)c1cc(NS(=O)(=O)c2cccc3cccnc23)ccc1O	-7
O=C(Nc1ccccc1C(=O)NCCOc1ccccc1)c1ccccc1I	3
COc1ccccc1N1CCN(C(=O)CN(c2cc(Cl)ccc2OC)S(C)(=O)=O)CC1	0
O=C(Nc1ccncc1)Nc1c(Cl)cc(Cl)cc1Cl	9
COc1ccc(Cl)cc1N(CC(=O)Nc1ccccc1SC)S(C)(=O)=O	-8
C[C@@H]1CN([C@@H](C)CO)C(=O)Cc2cc(NC(=O)Cc3cn(C)c4ccccc34)ccc2O[C@@H]1CN(C)CC1CC1	33
C[C@H]1CN([C@@H](C)CO)C(=O)c2cccc(NC(=O)Nc3ccc(C(F)(F)F)cc3)c2O[C@@H]1CN(C)CC1CCCCC1	82*
O=C(CSc1nc(O)cc(=O)n1-c1ccccc1)Nc1ccc2ccccc2c1	14
COC(=O)C1=CN(C23CC4CC(CC(C4)C2)C3)C=C(C(=O)OC)C1c1cccc(OC)c1	109*
Fc1ccccc1CSc1nnc(Cn2cnc3ccccc32)n1-c1ccccc1	-26
C[C@@H]1CN([C@H](C)CO)C(=O)c2cc(NC(=O)NC3CCCCC3)ccc2O[C@@H]1CN(C)CC1CCCCC1	-5
C[C@H](CO)N1C[C@H](C)[C@H](CN(C)Cc2ccc(-c3ccccc3)cc2)Oc2ccc(N(C)C)cc2CC1=O	38
Cc1cc2nc(SCC(=O)O)nc(C)c2cc1C	-6
COc1ccc(C(=O)N(Cc2nc(-c3ccccc3)no2)C(C)C)cc1OC	-8
C[C@@H]1CN([C@@H](C)CO)C(=O)Cc2cc(NC(=O)Cc3ccccc3)ccc2O[C@@H]1CN(C)Cc1ccc(-c2ccccc2)cc1	?
COc1ccc([N+](=O)[O-])cc1N(CC(=O)N(C)C)S(C)(=O)=O	15
Cc1ccc(NC(=O)COc2c(C)cc(Cl)cc2Cl)c([N+](=O)[O-])c1	-13
O=C(NCC(c1ccccc1)c1c[nH]c2ccccc12)Nc1ccc(Cl)cc1 (configuration not stated)	?
COc1ccc(Nc2nccc(NCCO)n2)cc1	21
Cc1ccc(Cl)c(NC(=O)NCCN2CCN(c3ccccc3[N+](=O)[O-])CC2)c1	38
O=C(COc1ccc(Cl)cc1)Nc1cc(C(F)(F)F)ccc1N1CCOCC1	42
C[C@@H]1CN([C@@H](C)CO)C(=O)c2cccc(NS(C)(=O)=O)c2O[C@@H]1CN(C)Cc1ccc(C(F)(F)F)cc1	1
c1ccc(CN2CCOCCN(Cc3ccccc3)CCOCC2)cc1	87*
CCn1ncc(C2=NOC(C(=O)Nc3ccc(Cl)c(Cl)c3)C2)c1C (configuration not stated)	18

Next section:
SMILES	NOMO-1 viab
C[C@@H]1CN([C@H](C)CO)C(=O)c2cc(NC(=O)CCCN(C)C)ccc2O[C@H]1CN(C)Cc1ccc(Cl)c(Cl)c1	21
Cc1ccccc1NC(=O)CSc1nnc(-c2ccc(C(C)(C)C)cc2)n1C	37
C[C@H](CO)N1C[C@H](C)[C@H](CN(C)C(=O)Nc2ccc(F)cc2)Oc2c(NC(=O)CCCCCC(=O)Nc3ccccc3N)cccc2C1=O	23
CN1C(=O)C(c2c[nH]c3ccccc23)=C(c2c[nH]c3ccccc23)C1=O	19
Cc1ccc(OCC(=O)Nc2ccc(C)cc2[N+](=O)[O-])c(C)c1	-17
CS(=O)(=O)N(CC(=O)Nc1ccc(C(F)(F)F)cc1)c1cccc([N+](=O)[O-])c1	121*
CCn1c(SCC(=O)Nc2ccc(I)cc2)nnc1-c1ccccc1F	29
COc1ccc(OC)c(/C=C/C(=O)O)c1	0
CC(C)NC(=O)N(C)C[C@@H]1Oc2ccc(NS(=O)(=O)c3ccccc3)cc2CC(=O)N([C@H](C)CO)C[C@@H]1C	22
COc1ccc(CCNC(=O)Nc2cccc([N+](=O)[O-])c2)cc1OC	5
CCOC(=O)CC1=Nn2c(nnc2-c2cccs2)SC1	-3
CC(=O)Nc1ccc(C(=O)Nc2cccc(NC(=O)c3ccco3)c2)cc1	-12
O=C(CC1NC2CCCCC2NC1=O)Nc1ccc([N+](=O)[O-])cc1 (configuration not stated)	1
COc1ccc(S(=O)(=O)N(C)CC(=O)Nc2cc(C)ccc2C)cc1C	33
